Compound activity (PubChem)
Cruzain inh noDet – qHTS Assay for Promiscuous and Specific Inhibitors of Cruzain (without detergent) | Cruzipain (Trypanosoma cruzi), P25779 | purified cruzain, Z-FR-AMC fluorescence, no detergent | Potency, µM, for inactives: max response, negative = inhibition, usual class: inhibitors | 200,000 compounds, 2.3% hits | AID 1476, 2009; active means well fitted curve in the direction sought with a large enough effect; inconclusive means small, poorly fitted or top-dose-only effect, or another doubt; inactive means no such curve, though single readings can be large; an effect the other way counts as inactive or inconclusive;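 further: plate controls were enzyme without inhibitor for no effect and buffer without enzyme for full effect; nearly all actives have a fitted effect of over 40% in size; top concentration of the series not given in the record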
Target sequence (P25779 123-467 limits assumed): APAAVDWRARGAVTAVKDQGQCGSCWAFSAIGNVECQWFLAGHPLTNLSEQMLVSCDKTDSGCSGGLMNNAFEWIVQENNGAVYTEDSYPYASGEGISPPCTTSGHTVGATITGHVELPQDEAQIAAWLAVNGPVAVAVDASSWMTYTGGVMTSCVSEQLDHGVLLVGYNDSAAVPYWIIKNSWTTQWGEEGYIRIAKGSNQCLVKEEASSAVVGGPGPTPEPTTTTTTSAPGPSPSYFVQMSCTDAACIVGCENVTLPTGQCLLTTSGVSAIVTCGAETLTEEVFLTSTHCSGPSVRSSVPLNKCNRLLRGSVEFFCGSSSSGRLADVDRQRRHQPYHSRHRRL
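Purified cruzain at 1.5 nM, pre-incubated 15 min with compound at room temperature in 100 mM sodium acetate pH 5.5, 5 mM DTT, 0.00005% Triton X-100. Reaction started with 2 uM Z-FR-AMC; AMC fluorescence increase over 60 s gives rate.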
Cruzain inh Det – qHTS Assay for Promiscuous and Specific Inhibitors of Cruzain (with detergent); Cruzipain (Trypanosoma cruzi), P25779; purified cruzain, Z-FR-AMC fluorescence, 0.01% Triton; Potency, µM, for the others: max response, negative = inhibition, hits mostly inhibitors; 200,000 compounds, 0.43% hits; AID 1478, 2009; active means well fitted curve in the direction sought with a large enough effect; inconclusive means small, poorly fitted or top-dose-only effect, or another doubt; inactive means no such curve, though single readings can be large; an effect the other way counts as inactive or inconclusive;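 further: plate controls were neutral wells for no effect and buffer without enzyme for full effect; nearly all actives have a fitted effect of over 40% in size; top concentration of the series not given in the record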
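Read-out: AMC fluorescence (360 nm excitation, 450 nm emission), four reads over 2 min, first-to-third difference used. Conditions: cruzain 1.5 nM, Z-FR-AMC 2 uM, pH 5.5 acetate, 5 mM DTT, 0.01% Triton X-100.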
Marburg entry inh – qHTS for inhibitors of binding or entry into cells for Marburg Virus; Marburg virus pseudotyped entry inhibition, cell reporter; control for the full effect not named in the record; about a third of the inactives were read at about 46 µM; Potency, µM (highest dose often 37.8 µM), for inactives: top-dose activity change, negative = inhibition, usual class: inhibitors; 300,000 compounds, 1.8% hits; AID 540276, 2011; active = well fitted inhibition curve with a large enough effect; inconclusive = small, poorly fitted or top-dose-only effect, or effect the other way; inactive = flat fitted curve, though single readings scatter; tested in HEK293 cells; about a fifth of its hits are not listed in these tables; further: on the % scale 0 is the no-effect control and ±100 the full control effect; luciferase read-out
RE007 growth inh – qHTS Assay for Inhibitors of the HIV-1 protein Vpr. 360,000 compounds, 0.21% hits. S. pombe RE007 Vpr strain, BacTiter-Glo ATP luminescence, 24 h; control for the full effect not named in the record. Potency, µM (titrated, usually from 92.2 µM), for inactives: top-dose activity change, negative = less growth; active = well fitted falling curve with a large enough effect; inconclusive = small, poorly fitted or top-dose-only effect; inactive = no such curve, though single readings can be large or run the other way;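 further: on the % scale 0 is the no-effect control and ±100 the full control effect; nearly all actives have a fitted effect of over 50% in size; the assay follows cell death caused by Vpr and the record does not say whether a fall means rescue or toxicity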
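Fission yeast strain RE007, carrying one chromosomally integrated HIV-1 vpr copy, was seeded at OD 0.01 in PMG+AL medium with 23 nL pinned compound. After 24 h at 30 °C and 99% humidity, viability was read by BacTiter-Glo luminescence.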
LASV entry inh – qHTS for Inhibitors of binding or entry into cells for Lassa Virus. Lassa virus pseudotype entry inhibition, cell reporter; control for the full effect not named in the record. Potency, µM (doses to about 37.9 µM), for the others: at the highest dose activity change, negative = inhibition, actives largely listed as inhibitors. AID 540256, 2011. 300,000 compounds, 1.2% hits; active means well fitted inhibition curve with a large enough effect; inconclusive means small, poorly fitted or top-dose-only effect, or effect the other way; inactive means flat fitted curve, though single readings scatter; tested in HEK293 cells; further: on the % scale 0 is the no-effect control and ±100 the full control effect; nearly all actives have a fitted effect of over 50% in size; luciferase read-out
SARS PLpro yeast – qHTS of Yeast-based Assay for SARS-CoV PLP. 330,000 compounds, 0.19% hits. Potency, µM (series often up to 32.9 µM), without a hit: at the highest dose activity, positive = growth rescue. S. cerevisiae expressing SARS-CoV PLpro, growth rescue; control for the full effect not named in the record; further: 0% is about no effect; nearly all actives have a fitted effect of over 55% in size; growth read by luminescence after 48 h
2A StopGo – High Throughput Screening for Foot and Mouth Disease Virus Antivirals; human cells with a luciferase reporter of 2A StopGo recoding; control for the full effect not named in the record; Potency, µM (series often up to 57.9 µM), for inactives: at the highest dose signal change, negative = less light; 410,000 compounds, 1.2% hits; AID 1159524, 2015; active = well fitted falling curve with a large enough effect; inconclusive = small, poorly fitted or top-dose-only effect; inactive = no such curve, though single readings can be large or run the other way; tested in HEK293T cells; further: on the % scale 0 is the no-effect control and ±100 the full control effect; nearly all actives have a fitted effect of over 45% in size; luciferase light after 4 h
NS1 inh – qHTS Assay for Inhibitors of Influenza NS1 Protein Function; Potency, µM (series often up to 46.1 µM), inactives show at the top dose activity, positive = more growth; 270,000 compounds, 0.4% hits; S. cerevisiae slowed by influenza A NS1, growth recovery by OD600; further: actives are rising curves; nearly all actives have a fitted effect of over 50% in size
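A cell-based growth assay was used: compounds that relieve NS1-induced slow growth of budding yeast raise OD600. Assay medium was yeast nitrogen base with ammonium sulphate and -URA supplement, pH 6.0, with 2% galactose.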
Starred values were filed as active, the others as inactive; ? = inconclusive; / = no result given; & = joins results of further samples; [ ] = remark or other dose. Unless noted, the call rests on the fitted dose curve; in most records, active means well fitted rising curve with a large enough effect; inconclusive means small, poorly fitted or top-dose-only effect; inactive means no such curve, though single readings can be large or run the other way. Potency means the concentration at half of the fitted maximal effect.

1	O=C(NNC(=O)C1COc2ccccc2O1)c1cccc([N+](=O)[O-])c1 (centres undefined)
2	CCCN1C(=O)/C(=C/c2ccco2)SC1=Nc1ccc(OC)cc1
3	O=C(N/N=C/c1ccncc1)c1cccc(S(=O)(=O)Nc2ccc(Cl)cc2)c1
4	CCOC(=O)N(c1ccccc1)P1(=S)OCC(C)O1 (centres undefined)
5	Cc1cccc(-n2c(C)cc(/C=N/NC(=O)c3cccc([N+](=O)[O-])c3C)c2C)c1
assay / entry	1	2	3	4	5
Cruzain inh noDet	/	2%	/	-4%	-27%
Cruzain inh Det	/	-13%	/	5.1%	-6.1%
Marburg entry inh	16%[46.1 µM]	-3%	/	10%	?
RE007 growth inh	0%	-15%	-3%	-3%	-9%
LASV entry inh	2%[46.1 µM]	?	/	-29%[14.3 µM]	?
SARS PLpro yeast	2%	-3%	1%	-1%	1%
2A StopGo	-4%	?	29%	9%	-24%
NS1 inh	/	10%	3%	-6%	8%

6	COc1ccc(-n2ccc(-c3nn(-c4cccc(C(F)(F)F)c4)ccc3=O)n2)cc1
7	O=C(NC(=S)Nc1ccc(S(=O)(=O)Nc2nccs2)cc1)c1ccccc1F
8	CS(=O)(=O)N1CCC(C(=O)N2CCN(C(c3ccccc3)c3ccccc3)CC2)CC1
9	CCCCOc1ccc(C(=O)N/C(=C\c2cccc([N+](=O)[O-])c2)C(=O)OCc2ccco2)cc1
10	CC(C)/C=N/Nc1nc2c(c(=O)n(C)c(=O)n2C)n1C
assay / entry	6	7	8	9	10
Cruzain inh noDet	?	/	/	-2%	/
Cruzain inh Det	-6.3%	/	/	-5.5%	/
Marburg entry inh	-30%	4%	4%	2%	1%
RE007 growth inh	20%	0%	-4%	5%	12%
LASV entry inh	-9%	28%	-10%	-13%	4%
SARS PLpro yeast	4%	4%	0%	1%	-1%
2A StopGo	-32%	84%[activator]	0%	-2%	-17%
NS1 inh	17%	/	-8%	21%	-2%

11	CC(C)=C(NC(=O)c1ccccc1)C(=O)N1CCOCC1
12	CC1CCCc2sc3nc(N4CCN(CCO)CC4)n4ncnc4c3c21 (centres undefined)
13	CC(C#N)Sc1nc2ccccc2c(=O)n1-c1ccccc1 (centres undefined)
14	NNC(=O)c1ccc(COc2ccc3ccccc3c2)o1
15	Cc1nc(SCC#N)c2c(C)c(C)sc2n1
assay / entry	11	12	13	14	15
Cruzain inh noDet	0%	-5%	-9%	/	-3%
Cruzain inh Det	1.4%	-2.3%	-0.5%	/	3.1%
Marburg entry inh	-20%	?	-17%	/	?
RE007 growth inh	-4%	-7%	-6%	-7%	12%
LASV entry inh	17%	27%	-10%	/	16%
SARS PLpro yeast	8%	-10%	1%	0%	?
2A StopGo	/	3%	/	12%	1%
NS1 inh	5%	-32%	-31%	15%	1%

Some entries already given, limited to LASV entry inh and 2A StopGo:
# | SMILES | LASV entry inh | 2A StopGo
14 | NNC(=O)c1ccc(COc2ccc3ccccc3c2)o1 | / | 12%
15 | Cc1nc(SCC#N)c2c(C)c(C)sc2n1 | 16% | 1%

Next part.
16	COc1cnn(C(C)(C)C)c(=O)c1Cl
17	C/C=C/c1ccc(OCC(=O)Nc2cc(OC)c(OC)c(OC)c2)c(OC)c1
18	COC(=O)/C=C/C(=O)Nc1cccc(C(F)(F)F)c1
19	CCOC(=O)CNC(=S)n1ncnc1N
20	CCCCOc1cccc(C(=O)N(Cc2ccc(C)o2)c2ccccn2)c1
assay / entry	16	17	18	19	20
Cruzain inh noDet	1%	/	-2%	/	-9%
Cruzain inh Det	-0.1%	/	-7.4%	/	-6.4%
Marburg entry inh	-1%	?	?	23%[46.1 µM]	?
RE007 growth inh	4%	9%	-27%	-7%	/
LASV entry inh	25%	10µM*	-10%	-11%	2%[46.1 µM]
SARS PLpro yeast	3%	-4%	-27%	-2%	/
2A StopGo	-6%	?	0%	-13%	-27%
NS1 inh	2%	/	-29%	/	/

21	CSc1nsc(SC)c1C(=O)Nc1ccc(C)cc1
22	CC(=O)c1c(C)[nH]c(C(=O)Nc2ccc(F)cc2F)c1C
23	CCCCCn1c(Sc2ncccn2)nc2c1c(=O)[nH]c(=O)n2C
24	Cc1cccc(NC(=O)CCC(=O)Nc2nnc(C(F)(F)F)s2)c1
25	CC12CCC(C(=O)N3CCN(C(c4ccccc4)c4ccccc4)CC3)(OC1=O)C2(C)C (centres undefined)
assay / entry	21	22	23	24	25
Cruzain inh noDet	-9%	/	-6%	/	?
Cruzain inh Det	1.7%	/	-0.5%	/	-4.0%
Marburg entry inh	?	-3%[46.1 µM]	10%	?	?
RE007 growth inh	13%	7%	-2%	0%	0%
LASV entry inh	-15%	3%	-15%	13%[46.1 µM]	-26%
SARS PLpro yeast	1%	-2%	11%	0%	19%
2A StopGo	19%	48%[activator]	-16%	-20%	?
NS1 inh	-32%	-7%	-6%	3%	12%

26	CCN(CC)C(=O)C(=O)N/N=C/c1cccc(Br)c1
27	COc1cccc(OC)c1C(=O)Nc1cccc(C(C)=O)c1
28	COc1ccc(C(=O)Nc2cccc(C(=O)O)c2)cc1S(=O)(=O)N1CCCC1
29	CCCCNC(=S)N1CCN(c2nc3ccccc3s2)CC1
30	CC(=O)Cc1nsc(NC(=O)c2ccc(-c3ccccc3Cl)o2)n1
assay / entry	26	27	28	29	30
Cruzain inh noDet	-6%	-3%	/	/	?
Cruzain inh Det	2.6%	0.6%	/	/	-16%
Marburg entry inh	15%	?	3%	/	-16%&0%
RE007 growth inh	-7%	11%	8%	-2%	-10%
LASV entry inh	-9%	-26%	-8%	/	-23%
SARS PLpro yeast	7%	0%	4%	-1%	-11%
2A StopGo	7%	-11%	-27%	-22%	42%[activator]
NS1 inh	14%	4%	3%	-6%	-71%

31	CN(C)CCNCc1ccccc1OC1CCCC1
32	CC(Cc1ccccc1)C(=O)NCc1ccccn1 (centres undefined)
33	COc1cc(C2Nc3ccc4ncccc4c3C3=C2C(=O)CCC3)cc(OC)c1O (centres undefined)
34	COc1ccccc1-n1cnc2cc(NC(=O)c3ccco3)ccc21
35	COc1ccc(CCNC2=C(Cl)C(=O)N(CCc3ccc(OC)c(OC)c3)C2=O)cc1OC
assay / entry	31	32	33	34	35
Cruzain inh noDet	3%	-4%&3%	-18%	-1%	?
Cruzain inh Det	1.8%	0.3%&1.7%	-9.9%	1.3%	-4.5%
Marburg entry inh	?	?	?	?	?
RE007 growth inh	4%	7%	5%	8%	11%
LASV entry inh	-7%	-25%	?	-10%	?
SARS PLpro yeast	-2%	-2%	4%	-1%	1%
2A StopGo	3%	12%	-28%	/	10µM*
NS1 inh	3%	?	-1%	-99%	4%

36	O=S(=O)(c1ccc2ccccc2c1)N1CCN(S(=O)(=O)N2CCCCC2)CC1
37	c1ccc(CN2CCNCC2)nc1
38	CC1(C)Cc2c(c(=S)nc(-c3ccccc3)n2CCN2CCOCC2)CO1
39	CC[C@@H](C)[C@@H](C(=O)N1CCN(C(=O)OC(C)(C)C)CC1)n1cc(CCCN=C(NC(=O)OC(C)(C)C)NC(=O)OC(C)(C)C)nn1
40	Cn1c(=O)c2cc(S(=O)(=O)NCCC(=O)NCCC3=CCCCC3)ccc2n(C)c1=O
assay / entry	36	37	38	39	40
Cruzain inh noDet	?	/	-20%	/	12%
Cruzain inh Det	1.8%	/	-7.6%	/	2.4%
Marburg entry inh	-28%	/	-7%	/	-1%
RE007 growth inh	3%	30%	4%	-12%	-7%
LASV entry inh	-13%	/	-1%	/	-1%
SARS PLpro yeast	11%	-3%	-3%	1%	2%
2A StopGo	-19%	0%	-2%	-30%	-3%
NS1 inh	2%	7%	-2%	0%	-7%

Record cards (already shown). Order of values: Cruzain inh noDet | Cruzain inh Det | Marburg entry inh | RE007 growth inh | LASV entry inh | SARS PLpro yeast | 2A StopGo | NS1 inh
`CC(C)=C(NC(=O)c1ccccc1)C(=O)N1CCOCC1` is listed as 0% | 1.4% | -20% | -4% | 17% | 8% | / | 5%
`CCOC(=O)N(c1ccccc1)P1(=S)OCC(C)O1` (centres undefined) is listed as -4% | 5.1% | 10% | -3% | -29%[14.3 µM] | -1% | 9% | -6%

Additional entries:
41	Cc1ccnc(N2CCC(C(=O)Nc3ccc4c(c3)OCCO4)CC2)n1
42	O=C(c1cc(N2C(=O)C3C4CCC(C4)C3C2=O)ccc1Cl)N1CCN(c2ccccc2)CC1 (centres undefined)
43	COc1ccc(C(=O)N2c3ccccc3C(=O)OC2c2ccc3c(c2)OCO3)cc1 (centres undefined)
44	Cc1cc(OCC(=O)NCC2(N3CCOCC3)CCCCC2)ccc1Cl
45	CCC1CN(C(=O)NCc2ccc(C)cc2)c2cc(Cl)ccc2O1 (centres undefined)
46	Cc1cc(=O)n(CC(=O)NCCC(C)C)c2c1c(C)nn2C
47	CCN(C(=O)CN1C(=O)c2ccc([N+](=O)[O-])cc2C1=O)C1CCS(=O)(=O)C1 (centres undefined)
48	CC(=O)Nc1ccc(NC(=O)CCC(=O)NCCO)cc1
assay / entry	41	42	43	44	45	46	47	48
Cruzain inh noDet	/	28%	4%	-11%	0%	-9%	/	4%
Cruzain inh Det	/	-1.5%	-1.0%	4.1%	-2.2%	1.9%	/	4.4%
Marburg entry inh	/	?	-22%	?	/	/	-4%	5%
RE007 growth inh	3%	-13%	-5%	/	12%	/	-7%	14%
LASV entry inh	/	-6%	?	-4%[46.1 µM]	6%[46.1 µM]	?	?	7%
SARS PLpro yeast	-1%	-7%	-13%	/	-1%	/	5%	-2%
2A StopGo	10%	?	0%	-10%	-28%&-28%	-15%	3%	0%
NS1 inh	-10%	6%	-57%	/	-7%	/	/	6%
